# Screens from PubChem.
# HIV Env fusion – inhibitors of HIV-1 Env-driven cell-cell fusion, primary screen, HeLa-JRFL effector, CEM21 target cells, luciferase; AID 651610, 2012; 1.1% of 360,000 active; inhibition, % at 12.3 µM;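 active = mean replicate inhibition score of at least 50 and every replicate individually at or above 50; inconclusive = only one of the two criteria met; inactive = mean below 50 and not all replicates reaching 50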;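 note: 0% = plate neutral controls and 100% = maraviroc near 300 nM; one replicate is shown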
# MT1-MMP act inh – blockers of MT1-MMP proenzyme processing, primary screen, HT1080 RFP-PRO-GFP cells, GFP/RFP fluorescence. GFP/RFP ratio fluorescence, overnight; percent of plate control window, DMSO zero. AID 651647, 2012. GFP/RFP ratio change, % at 20 µM. 0.061% of 360,000 active. Matrix metalloproteinase-14 (Homo sapiens), P50281;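 active = GFP/RFP ratio change of at least 30% with cell ATP level not reduced by more than half and red fluorescence within 50% of control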; note: strong numbers were not always called active
#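 Material – HT1080 RFP-PRO-GFP cells · Control set – DMSO wells and RFP-L50D-GFP cells · Incubation – overnight cell settling, then overnight compound exposure, 37 °C, 5% CO2 · Compound dosing – single-point 20 µM compound, 1% DMSO · Read-out – GFP/RFP fluorescence ratio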
# MT1-MMP act inh RFP – also measured in MT1-MMP act inh; calls as there; RFP signal change, %; measured here: RFP expression control read;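 0 = vehicle wells; hits needed this value within 50% of zero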
# Active calls of the source: *; i = inactive; ? = inconclusive; [ ] = dose if it differs, or a comment. These rows are one share of the data; the hit share may differ from the screen's.
SMILES,HIV Env fusion,MT1-MMP act inh,MT1-MMP act inh RFP
CCCCCCCCN1C(=O)[C@H](CC(=O)NCC2CCCCC2)C[C@@]2(C(=O)OC)CC(C)(C)CC=C12,9.3,-12.9,-10.5
CCCCCNC(=O)C(c1cccc2ccccc12)n1c(=O)c(-c2ccccc2)nc2ccccc21 (stereo not given),3.2,-17.7,-18.5
CC1(C(=O)NCc2ccccc2)CN(S(C)(=O)=O)CC(=O)N1C1CC1 (stereo not given),3.0,5.8,8.8
CC(C)OC(=O)c1ccc(NCc2cc(O)ccc2O)cc1,-67.2,-54.6,-26.6
CCOC(=O)[C@]12CCCC=C1N(Cc1cccc3ccccc13)C(=O)[C@H](CC(=O)NCC13CC4CC(CC(C4)C1)C3)C2,-21.0,-11.3,-12.1
CC(C)NC(=O)CSc1ccccc1C(=O)N1CCN(S(=O)(=O)Cc2ccccc2)CC1,2.6,0.4,-1.4
C=C1C[C@@H]2C[C@@H]2CN(S(=O)(=O)c2ccc(C)cc2)[C@@H]1COCc1ccccc1,-8.6,-2.8,-13.4
C=CCC(NC(=O)N(C)C)(C(=O)OC)C(C)O (stereo not given),-23.9,4.3,8.7
O=C1NC[C@H](CCCCN2C[C@H](Cc3ccccc3)N(CCC3CCCCC3)C(=O)C2=O)N(CC2CCCCC2)C1=O,-1.9,-0.1,-13.1
COC(=O)c1ccc2nc(-c3ccc(Cl)cc3)c(CC3CCCCC3)n2c1,-1.2,-15.0,-14.6
O=C(CCNC(=O)c1ccccc1)NC1CCCc2ccccc21 (stereo not given),-1.8,-0.6,2.9
CC(=O)Nc1ccc(CN(C)c2c(C)nc3ccc(C(=O)N4CCN(c5ccccc5)CC4)cn23)cc1,-1.4,0.4,-0.9
CCOC(=O)CC1=CCc2c1ccc(OC)c2OC,-20.0,0.0,-2.3
Cc1cnc(C=NNC(N)=S)c2cccc(N)c12,12.3,2.7,-8.9
Cc1cc2cc3c(=O)[nH]c(=O)nc-3n(CC(O)C(O)C(O)CO)c2cc1C (stereo not given),-28.5,-1.3,0.7

# 4 compounds from above, arranged by the number in MT1-MMP act inh, high to low:
SMILES,HIV Env fusion,MT1-MMP act inh,MT1-MMP act inh RFP
CC(=O)Nc1ccc(CN(C)c2c(C)nc3ccc(C(=O)N4CCN(c5ccccc5)CC4)cn23)cc1,-1.4,0.4,-0.9
CCOC(=O)CC1=CCc2c1ccc(OC)c2OC,-20.0,0.0,-2.3
Cc1cc2cc3c(=O)[nH]c(=O)nc-3n(CC(O)C(O)C(O)CO)c2cc1C (stereo not given),-28.5,-1.3,0.7
CCCCCNC(=O)C(c1cccc2ccccc12)n1c(=O)c(-c2ccccc2)nc2ccccc21 (stereo not given),3.2,-17.7,-18.5

# Retrieved by structure from above:
SMILES,HIV Env fusion,MT1-MMP act inh,MT1-MMP act inh RFP
C=C1C[C@@H]2C[C@@H]2CN(S(=O)(=O)c2ccc(C)cc2)[C@@H]1COCc1ccccc1,-8.6,-2.8,-13.4
CCCCCNC(=O)C(c1cccc2ccccc12)n1c(=O)c(-c2ccccc2)nc2ccccc21 (stereo not given),3.2,-17.7,-18.5

# The listing continues.
SMILES,HIV Env fusion,MT1-MMP act inh,MT1-MMP act inh RFP
O=C(NCc1ccccc1)OC1CC2CC1[C@H]1CCCCN1C2=O (stereo not given in full),-2.0,3.4,6.1
O=C(NCCN1C(=O)S/C(=C/c2cccnc2)C1=O)c1ccc(S(=O)(=O)N2CCCC2)cc1,-77.8,-3.0,3.1
Cc1ccc(S(=O)(=O)N2[C@H](CC(=O)c3ccccc3)OC[C@@H]2C(C)C)cc1,-1.7,-3.4,-5.4
CC(NNC(=S)N1CCCCCC1)c1ccc2ccccc2n1 (stereo not given),68.8*,0.9,-4.5
COC(=O)[C@@]12C[C@@H](CC(=O)NCC3CCCCC3)C(=O)N(CCc3ccc(OC)c(OC)c3)C1=CCC(C)(C)C2,-21.7,-7.9,-6.1
Cn1c(=O)c2[nH]c(CCCCc3nc4ccccc4[nH]3)nc2n(C)c1=O,-18.4,-0.2,-2.7
O=C(O)c1nnsc1-c1csnn1,8.1,-4.7,5.6
COC(=O)C[C@@H]1C=C[C@H](NC(=O)Nc2ccc(OC)cc2)[C@@H](CO)O1,2.9,-3.7,3.1
Cc1cc(C)c2cc(C#N)c(NCCNC(=O)c3ccncc3)nc2c1,-0.3,7.8,3.9
O=C(COC(=O)c1ccc(F)cc1F)Nc1cc(S(=O)(=O)N2CCOCC2)ccc1Cl,5.9,2.1,4.8
CCCCCNC(=O)C(c1cc2ccccc2o1)n1c(=O)c(-c2ccccc2)nc2ccccc21 (stereo not given),8.3,-4.7,-6.6
S=C1NCc2cncnc2N1,12.3,2.0,5.1
O=C(O)C1CCCCN1c1ccccc1[N+](=O)[O-] (stereo not given),-11.6,2.7,2.1
COC1C(CO)OC(n2cnc3c(=S)nc(N)[nH]c32)C1O (stereo not given),-22.7,0.3,1.6
CCCCN1C(=O)C(CC(=O)NCc2cccs2)CC(C(=O)N(C)C)=C1C (stereo not given),4.9,2.7,4.2
O=C1NC(=O)C2(C=C(c3ccccc3)C(O)(c3ccccc3)C2)N1 (stereo not given),-2.4,4.5,1.8
N#Cc1cccc(C=C(C(=O)c2ccccc2)c2ccccc2)c1,-59.6,1.0,-27.9
CCC1Cc2[nH][nH]c(=O)c2C(CC)O1 (stereo not given),9.4,-2.5,4.0
O=C1c2ccccc2C(=O)N1CC(O)COc1cccc2ccccc12 (stereo not given),-4.8,3.0,3.2
CCOC(=O)[C@]12CCC=C1N(Cc1ccco1)C(=O)[C@H](CC(=O)NCCCN1CCCC1=O)C2,6.2,0.0,-0.4
COC1=C(OC)C(=O)C(Sc2ccc3ccccc3c2)=CC1=O,-41.7,-15.7,-18.0
O=C(C[n+]1cccc(C(=O)Nc2ccccc2)c1)c1ccccc1,-22.5,-3.9,2.8
O=C1OC(c2ccc(F)cc2)CC1CN1CCOCC1 (stereo not given),-5.4,1.4,5.5
O=C(C[C@@H]1CC[C@@H]2[C@H](COC[C@H](O)CN2C(=O)Nc2ccc(F)cc2)O1)NCCc1ccncc1,2.2,5.2,5.8
COC(=O)/C=C1\OCc2c(F)cccc21,9.5,1.4,3.2
COC(=O)C1=C(C(=O)OC)C(C(=O)OC)C(C(=O)OC)C(C(=O)OC)(C(=O)OC)C(C(=O)OC)=C1C(=O)OC (stereo not given),2.4,-1.3,3.6
O=S1(=O)CC(N2CCSCC2)CN1Cc1cn(Cc2cccc(C(F)(F)F)c2)nn1 (stereo not given),-18.9,4.9,6.0
O=C(CCN1CCCO1)N1CCCC(Nc2cccc(F)c2)C1 (stereo not given),-18.1,1.8,-0.4
O=C(O)c1cc2c(ncc3c(=O)n(-c4ccccc4)[nH]c32)s1,1.7,2.4,5.9
O=C1NC[C@@H](CCCCN2CCN(CCc3ccc(O)cc3)C(=O)C2=O)N(CCC2CCCCC2)C1=O,-30.6,6.6,6.6
O=C1NC[C@@H](Cc2ccc(O)cc2)N(CCCCC2CCCCC2)C1=O,21.9,25.1,-2.3
N#CC(C#N)=NNc1ccc2cn[nH]c2c1,28.5,-4.6,-3.1
Cn1c(=O)c2c(-c3ccccc3)n(-c3ccccc3)cc2n(C)c1=O,-35.5,-2.8,-4.8
CC1(C(=O)Nc2ccc3c(c2)OCCO3)CSCC(=O)N1CC(F)(F)F (stereo not given),-11.1,5.1,5.3
c1ccc(SC23CCCCN(CCC2)[C@]32CO2)cc1 (stereo not given in full),23.0,-2.7,1.5
O=C(NCc1ccccc1)C(c1cc2ccccc2o1)n1c(=O)c(-c2ccccc2)nc2ccccc21 (stereo not given),-5.3,-11.2,-12.6
Nc1nc(Cl)nc2c1ncn2C1OCC(O)C(O)C1O (stereo not given),0.9,-0.6,0.8
COc1ccc(-c2cc(-c3ccccc3)nc(N)n2)c(O)c1,-8.7,19.4,10.5
CCOC(=O)[C@]12CCC=C1N(Cc1ccc(Cl)cc1Cl)C(=O)[C@H](CC(=O)NCCc1ccccc1OC)C2,-10.6,-5.2,-14.5
c1ccc(C[C@H]2CN=C(Nc3ccccc3)N2CC2CCCC2)cc1,-2.3,2.5,4.4
CCOC(=O)[C@]12CCC=C1N(CCC1=CCCCC1)C(=O)[C@H](CC(=O)N1CCCCC1)C2,?,2.4,2.9
CO[C@@H]1CN(C)C(=O)c2ccc(NC(C)=O)cc2OC[C@@H](C)N(C(=O)NC2CCCCC2)C[C@H]1C,-6.2[16.7 µM],1.7,6.1
CN(C)CCNc1nc(Oc2cccc(F)c2)c2sccc2n1,-1.3,1.4,1.8
CC(C)(C)NC(=O)C(c1ccccc1F)n1c(=O)c(-c2ccco2)nc2ccccc21 (stereo not given),26.8,-10.4,8.2
Cc1cccc(C)c1-n1nnnc1C1(C)CCC(=O)N1CCc1ccccc1F (stereo not given),14.9,3.3,0.0
Cc1cccc(-c2ccc([N+](=O)[O-])cc2CN2CCN(c3ncc(Cc4ccccc4)cn3)CC2)c1,-1.8,2.3,-2.8
COc1cc(C)ccc1Oc1ccc([N+](=O)[O-])cc1,38.6,2.4,-2.8
CCOC(=O)[C@]12CCCC=C1N(CCc1ccc(OC)c(OC)c1)C(=O)[C@H](CC(=O)N1CCSCC1)C2,-33.6,3.3,2.4
COc1ccc(C(C(=O)Nc2c(C)cccc2C)n2c(=O)c(-c3ccccc3)nc3ccccc32)cc1 (stereo not given),-8.7,-14.2,-10.9
CC(OC(=O)Cc1ccccc1F)C(=O)Nc1ccc(Cl)cn1 (stereo not given),-2.7,4.7,3.6
c1ccc2c(-c3nc4ccccc4[nH]3)cccc2c1,-211.4,0.2,-9.6
COc1cc(OC)cc(-c2c(Sc3ccccc3)c3cc(-c4ccc5c(c4)OCCO5)ccc3n2C)c1,2.3,1.1,1.3
C[C@H]1COc2cc(N3CCC[C@@H]3CO)ccc2S(=O)(=O)N1,-141.1,8.2,4.2
CC(C)(C)N1C(=O)c2ccccc2NC(=O)C1C(=O)NCc1ccco1 (stereo not given),6.1,-1.0,0.3
Cc1ccc(CN2C(=O)CSCC2(C)C(=O)NC(C)C)cc1 (stereo not given),-23.6,-1.0,0.4
COc1cccc(CCNC(=O)c2cc(COc3cccc(OC)c3)on2)c1,8.9,1.9,1.3
COCCCn1cc(CN2CC(N3CCN(Cc4cccc(C)c4)CC3)CS2(=O)=O)nn1 (stereo not given),5.2,3.0,5.9
COC1=CC(=O)c2c(ccc3ncnc(N)c23)C1=O,76.2*,-102.3,-28.2
Cn1cc(C=CC(=O)O)c2nccnc21,16.2,0.2,6.3
CCc1cccc(CC)c1N1C(=O)C2=C(SCCCS2)C1=O,14.3,-64.3,0.6

# A second format for some results above.
> c1ccc2c(-c3nc4ccccc4[nH]3)cccc2c1
  HIV Env fusion = -211.4
  MT1-MMP act inh = 0.2
  MT1-MMP act inh RFP = -9.6
> CCOC(=O)[C@]12CCCC=C1N(Cc1cccc3ccccc13)C(=O)[C@H](CC(=O)NCC13CC4CC(CC(C4)C1)C3)C2
  HIV Env fusion = -21.0
  MT1-MMP act inh = -11.3
  MT1-MMP act inh RFP = -12.1
> O=C1NC[C@H](CCCCN2C[C@H](Cc3ccccc3)N(CCC3CCCCC3)C(=O)C2=O)N(CC2CCCCC2)C1=O
  HIV Env fusion = -1.9
  MT1-MMP act inh = -0.1
  MT1-MMP act inh RFP = -13.1

# Additional results follow:
SMILES,HIV Env fusion,MT1-MMP act inh,MT1-MMP act inh RFP
CCCCNC(=O)c1nc(-c2cnccn2)oc1-c1ccc(Cl)cc1,7.7,-1.1,-0.7
COC(=O)[C@]12CCCCC=C1N(Cc1ccco1)C(=O)[C@H](CC(=O)N1CCSCC1)C2,7.5,2.1,6.2
CC1(C)CC(Cc2ccccc2C(F)(F)F)N(C(=O)OC(C)(C)C)C1 (stereo not given),-10.0,-1.0,3.9
CC1=C(C(=O)N(C(C)C)C(C)C)CC(CC(=O)NC2CC2)C(=O)N1Cc1ccc(C(C)(C)C)cc1 (stereo not given),-163.4,8.7,-1.1
COc1cc2cc(OC(C)=O)c3cc4c(cc3c2c(OC)c1OC)OCO4,-34.4,7.1,7.0
CCCCOCCCNC(=O)C[C@@H]1C[C@@]2(C(=O)OC)CCCCC=C2N(Cc2cccc3ccccc23)C1=O,31.8,-3.0,-3.8
COC(=O)[C@@]1(Sc2ccc(C)cc2)CC(=O)N[C@@H]1c1ccc(Br)cc1,-115.7,9.4,-4.4
CC1=C(C(=O)N2CCOCC2)CC(CC(=O)NCCc2ccccn2)C(=O)N1CCCN1CCCC1=O (stereo not given),-24.4,9.4,10.3
c1ccc2sc(-n3cc(C4CCCCC4)nn3)nc2c1,-110.9,5.4,0.3
COC(=O)c1ccc(N2C(c3cccc(OC)c3)=Cc3ccc(F)cc3C2c2c(C)[nH]c3ccccc23)cc1 (stereo not given),14.8,-5.9,-5.9
Clc1nnc2c3ccccc3ccn12,-37.9,-1.3,0.1
O=C(NCc1ccccc1)c1ccc([N+](=O)[O-])cc1,?,0.5,-0.3
CC(=O)OC[C@@H]1CN(Cc2ccccc2)C[C@H](n2ccc3c(N)ncnc32)O1,i,4.9,3.9
COC(=O)CCCn1cc(CN2CC(N3CCCCC3)CS2(=O)=O)nn1 (stereo not given),0.8,1.5,4.8
CC(C)[C@H](NC(=O)OC(C)(C)C)c1cc(C(=O)NC2CC2)c(N)s1,19.7,8.8,3.0
